HPGD block: qHTS Assay for Inhibitors of HPGD (15-Hydroxyprostaglandin Dehydrogenase) | purified HPGD, NADH fluorescence kinetic, PGE2 substrate | 15-hydroxyprostaglandin dehydrogenase [NAD(+)] (Homo sapiens), P15428 | hit rate 4.3% among 150,000 | Potency, µM, for inactives: at the highest dose activity change, negative = inhibition, most hits filed as inhibitors; active = well fitted inhibition curve with a large enough effect (not every such curve was filed as active); inconclusive = small, poorly fitted or top-dose-only effect, or another doubt; inactive = no such curve, though single readings can be large or run the other way;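 note: top concentration of the series not given in the record; plate controls included wells without enzyme; inactives centre near -10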
Target sequence (P15428 whole entry, looked up): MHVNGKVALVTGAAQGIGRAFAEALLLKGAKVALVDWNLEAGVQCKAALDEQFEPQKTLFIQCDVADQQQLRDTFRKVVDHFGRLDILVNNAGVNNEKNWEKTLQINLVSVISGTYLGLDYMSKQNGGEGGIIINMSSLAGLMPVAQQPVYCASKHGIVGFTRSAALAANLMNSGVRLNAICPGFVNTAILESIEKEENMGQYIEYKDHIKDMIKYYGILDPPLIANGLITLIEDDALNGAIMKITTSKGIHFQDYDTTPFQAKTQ
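20 nM HPGD preincubated 15 min at room temperature with compound in 50 mM Tris-HCl pH 8, 0.01% Tween 20. Started with 1 mM NAD+ and 30 uM prostaglandin E2; NADH fluorescence (360/450 nm) read 5 times over 30-s intervals, last minus first.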
Numbers without * were called inactive. % is set by controls: 0 for no effect and ±100 for the full control effect; potency is the fitted concentration of half-maximal effect. Some of the compounds tested; the hit share may differ from the screen's.

O=C(CSc1ncn[nH]1)Nc1ccccc1Sc1ccc(Cl)cc1 was read as HPGD block -18%.
C=CC[N+]1(CC#CCOC(c2ccccc2)c2ccccc2)CCOCC1 was read as HPGD block -12%.
CCN(CC)CC(=O)Nc1ccc(C)cc1Br was read as HPGD block 16µM*.
`Cc1cc(NS(=O)(=O)c2ccc(NC(=O)C(CC(C)C)N3C(=O)c4ccccc4C3=O)cc2)nc(C)n1` (stereo unspecified) gave HPGD block -5%.
Cc1csc(NC(=O)C2CCCN(S(=O)(=O)c3ccc(Br)s3)C2)n1 (stereo unspecified) was read as HPGD block -19%.
`Cc1cc(=O)n(CC=C(Cl)Cl)c2ccccc12` gave HPGD block 7.9µM*.
Screening O=C(CCN1C(=O)c2ccccc2C1=O)Nc1ccc(S(=O)(=O)NC2=NCCCCC2)cc1 returned HPGD block -18%.
`Cn1c(=O)cc(N2CCCCC2)[nH]c1=O` gave HPGD block -8%.
For COCCCNC(=O)C(=O)NC1CCCCCC1 the results were HPGD block -5%.
For CCOC(=O)C1=C(N)OC2=C(C(=O)CC(C)(C)C2)C1c1ccccc1OCC#N (stereo unspecified) the results were HPGD block -5%.
`O=C(CC1CCCC1)NCCc1cn2ccccc2n1` gave HPGD block inconclusive.
CCN(CC)C(=O)C1CCCN(c2ccc([N+](=O)[O-])cc2/C=N/NC(=O)c2ccccc2)C1 (stereo unspecified) was read as HPGD block -11%.
For Cc1ccc(S(=O)(=O)N/N=C\C=C\c2ccccc2)cc1 the results were HPGD block -24%.
Screening NS(=O)(=O)c1cccnc1Nc1c(Cl)cccc1Cl returned HPGD block -13%.
O=C(Nc1ccc(-c2nnc(-c3ccco3)o2)cc1)C(c1ccccc1)c1ccccc1 was read as HPGD block inconclusive.
Screening CC(C)Cn1c(SCC#N)nc2ccccc2c1=O returned HPGD block 1%.
For CC(C)(C)N(NC(=O)OCc1ccccc1)C(=O)c1ccccc1Cl the results were HPGD block -4%.
For Cc1ccc(Nc2n[nH]c(C)c2[N+](=O)[O-])cc1 the results were HPGD block -8%.
Cc1ccc(-n2[nH]c(C)c(C=Nc3ccc4[nH]c(=O)[nH]c4c3)c2=O)cc1C was read as HPGD block -14%.
COc1ccc(S(=O)(=O)N2CCN(CC(=O)Nc3cccc(F)c3)CC2)cc1 was read as HPGD block 0%.
`COC(=O)N1CCC2(CC1)CCN(c1cccc(-c3ccccc3)c1)CC2` gave HPGD block -25%.
For COc1ccc(CCNC(=O)CSc2ncnc3c2oc2ccccc23)cc1OC the results were HPGD block -15%.
For CO[C@]1(NC(=O)CSCC#N)C(=O)N2C(C(=O)O)=C(CSc3nnnn3C)CS[C@H]21 the results were HPGD block -10%.
CC(=O)Nc1ccc(NC(=S)NC(=O)c2ccc([N+](=O)[O-])cc2)cc1 was read as HPGD block -19%.

Seven compounds from above, sorted by molar mass, rising:
For Cc1ccc(Nc2n[nH]c(C)c2[N+](=O)[O-])cc1 the results were HPGD block -8%.
Screening CC(C)Cn1c(SCC#N)nc2ccccc2c1=O returned HPGD block 1%.
Screening NS(=O)(=O)c1cccnc1Nc1c(Cl)cccc1Cl returned HPGD block -13%.
CC(=O)Nc1ccc(NC(=S)NC(=O)c2ccc([N+](=O)[O-])cc2)cc1 was read as HPGD block -19%.
For CC(C)(C)N(NC(=O)OCc1ccccc1)C(=O)c1ccccc1Cl the results were HPGD block -4%.
`COC(=O)N1CCC2(CC1)CCN(c1cccc(-c3ccccc3)c1)CC2` gave HPGD block -25%.
For CO[C@]1(NC(=O)CSCC#N)C(=O)N2C(C(=O)O)=C(CSc3nnnn3C)CS[C@H]21 the results were HPGD block -10%.

Following part.
Screening COC(=O)c1ccsc1NC(=O)CN1CCN(Cc2ccc3c(c2)OCO3)CC1 returned HPGD block 0%.
For CC1CN(C(=O)CCN2C(=O)c3ccccc3C2=O)CC(C)O1 (stereo unspecified) the results were HPGD block -10%.
`CNC(=S)NNC(=O)c1sccc1OCc1ccccc1` gave HPGD block 1%.
`COC(=O)C1=C(C(=O)OC)[C@@H]2N(Cc3ccccc3)c3ccccc3[C@@]23C[C@@H](C(=O)OC)N(S(=O)(=O)c2cccs2)C3=N1` gave HPGD block -12%.
Screening CSC1=C(C#N)C(CC(C)C)C2=C(CCCC2=O)N1 (stereo unspecified) returned HPGD block -12%.
`CCOC(=O)C1=C(O)C(=O)N(c2ccc(S(N)(=O)=O)cc2)C1c1ccccc1` (stereo unspecified) gave HPGD block -10%.
`Cn1c(=O)c2c(nc(C(=N)SCC(=O)O)n2C)n(C)c1=O` gave HPGD block -27%.
`CC(C)C(=O)NC(C)C(c1cccs1)N1CCOCC1` (stereo unspecified) gave HPGD block -8%.
For COC(=O)c1ccccc1NC(=O)/C=C/c1ccco1 the results were HPGD block -24%.
For COc1ccc(C)cc1NC(=O)c1cnc2scc(C)n2c1=O the results were HPGD block inconclusive.
N#C/C(=C\c1ccc(F)cc1)c1n[nH]c(Cn2cncn2)n1 was read as HPGD block -11%.
O=C(Nc1ccccc1)N1CCC2(CC1)CCN(C(=O)c1ccncc1)CC2 was read as HPGD block -2%.
Screening COc1ccccc1N1CCN(C(=O)CN(c2ccccc2OC)S(=O)(=O)c2ccccc2)CC1 returned HPGD block -7%.
For CC(C)c1ccc(OCC(=O)NC(=S)Nc2ccc3c4c(cccc24)CC3)cc1 the results were HPGD block -13%.
`COCCn1nnnc1C(CC(C)C)N1CCN(c2ccccc2)CC1` (stereo unspecified) gave HPGD block -11%.
Screening CCN1CCCC1CN(Cc1cc2c(C)cc(C)cc2[nH]c1=O)C(=O)NC1CCCCC1 (stereo unspecified) returned HPGD block -29%.
Cc1cc(CSc2ccccc2)ccc1NC(=O)c1ccc(Cl)c([N+](=O)[O-])c1 was read as HPGD block -13%.
Screening CN1CCN(c2ccc([N+](=O)[O-])c(-n3nc(-c4ccccc4)c4ccccc4c3=O)c2)CC1 returned HPGD block -10%.
`Cc1ccccc1-c1nc(CN2CCC(C(=O)NCc3ccco3)CC2)c(C)o1` gave HPGD block 6%.
`COc1cc2oc(=O)c3c4c(cc5ccc(c1CCN(C)C)c2c53)OCO4` gave HPGD block -12%.
`CCCCCn1c(CCCNC(=O)CC)nc2ccccc21` gave HPGD block -8%.
Screening CSCCC(NC(=O)c1cccc(S(=O)(=O)N2CCOCC2)c1)C(=O)Nc1cccc(C)c1 (stereo unspecified) returned HPGD block -18%.
For CC(C)(C)NCC(O)COc1ccccc1C(C)(C)C (stereo unspecified) the results were HPGD block -6%.
`COc1cc(C(O)P(=O)(OC2CCCCC2)c2ccc(N(C)C)cc2)cc(OC)c1OC` (stereo unspecified) gave HPGD block -14%.
`CCOC(=O)c1ccc(NC(=O)CCc2nc(-c3ccc(Cl)cc3)no2)cc1` gave HPGD block -11%.
O=C(O)C1CC(=O)N(c2ccc(OCc3ccccc3)cc2)C1 (stereo unspecified) was read as HPGD block -18%.
For CCNC(=O)c1ccc(-n2nc(C)cc2-c2ccccc2)cc1 the results were HPGD block inconclusive.
`CCN(CC)C(=O)CSc1nc2ccccc2c(=O)n1CC` gave HPGD block -13%.
Screening Cc1cc(C)n(C(=O)CCCCCC(=O)n2nc(C)cc2C)n1 returned HPGD block -16%.
`CCOc1ccc(C(=O)NCc2ccccc2OC)cc1` gave HPGD block inconclusive.
`FC(F)(F)c1ccccc1NC(=S)NN1CCOCC1` gave HPGD block -4%.
For CC(NC(=O)c1ccc(Cl)cc1)c1nnc(SCc2ccc([N+](=O)[O-])cc2)n1C (stereo unspecified) the results were HPGD block -26%.
C/C=C/Cn1c(Br)nc2c1c(=O)n(C)c(=O)n2C was read as HPGD block -11%.
COc1cc(CNCCc2ccc(S(N)(=O)=O)cc2)ccc1OCc1ccc(Cl)cc1 was read as HPGD block -8%.
For COc1ccc(C(=O)/C=C/N2CCCCC2)cc1OC the results were HPGD block -16%.
`O=C(CSc1ccccc1)N(c1ccc(Br)cc1)c1nccs1` gave HPGD block -14%.
Screening CN1C[C@H](C(=O)N[C@]2(C)O[C@]3(O)[C@H]4CCCN4C(=O)[C@H](Cc4ccccc4)N3C2=O)C[C@H]2c3cccc4[nH]cc(c34)C[C@@H]21 returned HPGD block -22%.
For C=CCSc1nc(NC)c2sccc2n1 the results were HPGD block -12%.
For CCOC(=O)c1ccccc1NS(=O)(=O)c1ccccc1F the results were HPGD block -13%.
Screening O=Nc1c(O)n(Cc2ccc(Cl)cc2Cl)c2ccccc12 returned HPGD block -11%.
CCn1c(SCC(=O)Nc2nc(C)c(C)s2)nnc1-c1ccco1 was read as HPGD block -1%.
CCc1ccc(CNC(=O)C2CCCN(c3nc4ccccc4o3)C2)cc1 (stereo unspecified) was read as HPGD block -7%.
`O=C(Nc1ccc2nc3ccccc3nc2c1)c1ccccc1` gave HPGD block -6%.
Screening O=C(NNC(=O)c1ccc(SCC2CCCO2)c([N+](=O)[O-])c1)c1ccc(Cl)c([N+](=O)[O-])c1 (stereo unspecified) returned HPGD block -23%.
O=C(COC(=O)c1ccc(Cl)c([N+](=O)[O-])c1)Nc1ccccc1OC(F)F was read as HPGD block -9%.
For N#Cc1ccccc1OCCN1C(=O)c2ccccc2C1=O the results were HPGD block -30%.
CCOC(=O)Nc1cc2c(cc1C(C)=O)OCO2 was read as HPGD block inconclusive.
CCOC(=O)c1cccc(N2C(=O)c3ccccc3S2(=O)=O)c1 was read as HPGD block -28%.

Of the compounds above, these contain a tert-butyl group:
For CC(C)(C)N(NC(=O)OCc1ccccc1)C(=O)c1ccccc1Cl the results were HPGD block -4%.
For CC(C)(C)NCC(O)COc1ccccc1C(C)(C)C (stereo unspecified) the results were HPGD block -6%.

Additional results:
`CCN(CC)S(=O)(=O)c1cc(C(=O)OCC(=O)c2ccc3c(c2)NC(=O)CO3)ccc1F` gave HPGD block -16%.
Screening Ic1ccc(N2CCN(Cc3c[nH]c4ncccc34)CC2)cc1 returned HPGD block -14%.
For C/C(CC(=O)Nc1ccc(C)c(Cl)c1)=N\NC(=O)Cc1ccccc1 the results were HPGD block -14%.
O=C(CN1CC(=O)Oc2ccccc21)NCc1ccco1 was read as HPGD block -5%.
c1ccc(C(Cc2nc(-c3ccncc3)no2)c2ccccc2)cc1 was read as HPGD block -5%.
For O=C(Nc1ccccc1C(=O)N1CCNCC1)c1ccco1 the results were HPGD block 3%.
COc1ccc(NS(=O)(=O)c2ccc(NC(=S)NC(=O)C(C)C)cc2)cc1 was read as HPGD block -18%.
For O=C(c1cc2nc(-c3ccco3)cc(C(F)(F)F)n2n1)N1CCN(c2ccc(F)cc2)CC1 the results were HPGD block -8%.
Screening Cc1ccc(C(C#N)c2ccc3c(C(F)(F)F)cc(C(F)(F)F)nc3n2)cc1 (stereo unspecified) returned HPGD block -9%.
Screening Cc1[nH]c2ccccc2c1C(=O)CSc1nc2ccccc2[nH]1 returned HPGD block -13%.
Cc1nnc(OCC(=O)NCCC2=CCCCC2)c2ccccc12 was read as HPGD block -18%.
For CN1c2ccccc2C(O)=C(C(=S)Nc2ccc(F)c(Cl)c2)S1(=O)=O the results were HPGD block -21%.
`O=S(=O)(Nc1cc(Cl)ccn1)c1ccc(Cl)cc1` gave HPGD block -6%.
For Cc1cc(Oc2ccccc2)nc(SCC(=O)Nc2ccccc2)n1 the results were HPGD block -2%.
Screening CCCCn1c(SCC(N)=O)nnc1-c1cc(OC)c(OC)c(OC)c1 returned HPGD block inconclusive.
CCOc1ccc2ccccc2c1/C=N/NC(=O)CNC(=O)C(c1ccccc1)c1ccccc1 was read as HPGD block inconclusive.
OC(CN1C2=NCCN2c2ccccc21)c1ccccc1 (stereo unspecified) was read as HPGD block -5%.
Screening COC(=O)c1ccc2c(c1)C(C)(C)C(/C=C/c1ccc(O)cc1)=[N+]2C returned HPGD block -14%.
`Cc1ccccc1-n1c(Cn2c(=O)sc3ccccc32)nnc1SC(C)C` gave HPGD block -5%.
For C/C(=N\Nc1ccc(F)cc1F)c1ccc(F)cc1 the results were HPGD block -7%.
COc1ccc(NC(=S)Nc2nc(CC(=O)Nc3ccccc3OC)cs2)cc1 was read as HPGD block -24%.
For COc1cc2[nH]c3c(=O)n(CCN4CCCCC4)cnc3c2cc1OC the results were HPGD block inconclusive.
For CCCCNC(=O)CCn1c(=O)c2ccccc2n(CC(=O)N2CC(C)CC(C)C2)c1=O (stereo unspecified) the results were HPGD block -19%.
Screening CSc1cnc2c(N)nc(N(C)C)nc2n1 returned HPGD block -12%.
Screening O=C(c1csc2c1CCCC2)N1CCCCC1 returned HPGD block 1.6µM*.
For Cc1ccc(S(=O)(=O)N(CC(=O)O)Cc2ccccc2)cc1 the results were HPGD block 1%.
Screening Nc1nc(SCC(=O)NCc2ccccc2)[nH]c(=O)c1NC(=O)c1ccccc1F returned HPGD block -13%.
For Cc1ccc(N2C(=O)C3C4C=CC(C4)C3C2=O)cc1 (stereo unspecified) the results were HPGD block -14%.
`Cc1ccc(NC(=O)CN(C)S(=O)(=O)c2cnc[nH]2)cc1C` gave HPGD block -15%.
Screening COc1ccc(Oc2ncc3nc(-c4cc(F)cc(F)c4)c(=O)n(C)c3n2)cc1 returned HPGD block inconclusive.
For CC(=O)Nc1c(C(=O)c2ccc(F)cc2)oc2ccccc12 the results were HPGD block -9%.
`Cc1nnc(SCC(=O)N2CCN(Cc3ccccc3)CC2)s1` gave HPGD block -3%.
`COC(=O)C1C(=O)C2=C(CC1C)NC(C)=C(C(=O)OC(C)C)C2c1ccc(C)o1` (stereo unspecified) gave HPGD block -6%.
Cc1c(C(=O)Nc2ccc(C(=O)O)cc2)cnn1C was read as HPGD block -3%.
